HPGD block = HPGD (human) dehydrogenase inhibition; P15428; purified HPGD, NADH fluorescence kinetic, PGE2 substrate; Potency, µM, without a hit: at the top dose activity change, negative = inhibition, hits mostly inhibitors; 150,000 compounds, 4.3% hits; AID 894; active = well fitted inhibition curve with a large enough effect (not every such curve was filed as active); inconclusive = small, poorly fitted or top-dose-only effect, or another doubt; inactive = no such curve, though single readings can be large or run the other way;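 also: top concentration of the series not given in the record; plate controls included wells without enzyme; inactives centre near -10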
Target sequence (P15428 whole entry, looked up): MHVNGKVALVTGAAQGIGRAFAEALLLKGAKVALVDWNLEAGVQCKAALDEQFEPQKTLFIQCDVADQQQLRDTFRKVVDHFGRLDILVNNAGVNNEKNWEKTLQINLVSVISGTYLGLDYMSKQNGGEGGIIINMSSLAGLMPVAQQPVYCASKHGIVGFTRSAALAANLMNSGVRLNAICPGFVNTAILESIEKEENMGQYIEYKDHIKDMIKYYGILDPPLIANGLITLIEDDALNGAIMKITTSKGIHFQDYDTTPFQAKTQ
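20 nM HPGD preincubated 15 min at room temperature with compound in 50 mM Tris-HCl pH 8, 0.01% Tween 20. Started with 1 mM NAD+ and 30 uM prostaglandin E2; NADH fluorescence (360/450 nm) read 5 times over 30-s intervals, last minus first.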
Active calls of the source: *; ? = inconclusive. % is scaled to controls: 0 for no effect and ±100 for the full control effect; potency is read from the fitted curve at half-maximal effect.

| Structure | HPGD block |
| --- | --- |
| CC12c3ccccc3C(c3ccccc31)C1C(=O)N(Cc3cccnc3)C(=O)[C@H]12 (some centres not stated) | -3.1% |
| COc1ccccc1OCC(=O)NCCc1nc2ccccc2[nH]1 | -3.2% |
| Cc1cccc2cc(CN(Cc3ccc(F)cc3)C(=O)N3CCOCC3)c(=O)[nH]c12 | -10.0% |
| OCc1ccccc1N=c1ssnc1Cl | 6.31µM* |
| O=C(NCc1ccco1)c1ccc2c(c1)C(=O)N(C1CCCCC1)C2=O | -4.0% |
| O=C(NCCCN1CCN(c2cccc(Cl)c2)CC1)c1cccc(N2CCCC2=O)c1 | 1.8% |
| O=C(Nc1ccccc1)N1CCC(c2ccccc2)C1 (configuration not stated) | -6.4% |
| O=C(COC(=O)c1cccs1)c1ccc2ccccc2c1 | ? |
| CC(C)CNC(=S)NNC(=O)c1csc2c1CCC(C)C2 (configuration not stated) | -0.7% |
| CC(C)CC(NC(=O)c1ccco1)C(=O)Nc1ccc2c(c1)OCCO2 (configuration not stated) | -12.6% |
| Cc1cc(C)cc(SCc2noc(C(=O)NC(C)C)c2C(=O)O)c1 | -5.2% |
| CC1CCc2nn(CC(=O)NC3CCCC(C)C3C)cc2C1 (configuration not stated) | 14.1µM* |
| CC(C)(C)C(=O)Nc1nnc(CSCc2ccccc2F)s1 | -18.5% |
| CCC(=O)Nc1ccc(NC(=O)CSc2nnc(C(C)C)n2C)cc1 | -6.9% |
| COc1ccc(C(=O)NCCSc2ccc(C)cc2)cc1 | -13.3% |
| COc1cccc(Nc2cc(N3CCOCC3)c3nonc3c2[N+](=O)[O-])c1 | -29.8% |
| Cc1nc(SCC(=O)c2cccc([N+](=O)[O-])c2)n[nH]1 | -28.3% |
| O=C(CSc1nc2ccccc2c(=O)n1Cc1ccccc1)NCc1ccco1 | -22.7% |
| Cc1nnc(NC(=O)c2ccccc2F)s1 | -4.4% |
| COc1ccc(/C=C/C(=O)Oc2ccc(/C=N\NC(=O)c3ccc(F)cc3)cc2)cc1 | -23.4% |
| CCC(C)(C)NCC(=O)Nc1ccc(OC(F)(F)F)cc1 | -11.1% |
| CCCS(=O)(=O)N1CCCC(C(=O)NCCCOC(C)C)C1 (configuration not stated) | -1.0% |
| CCOC(=O)C1CCCN(Cc2nc(N)nc(Nc3ccc(OC)cc3)n2)C1 (configuration not stated) | -1.9% |
| CCN(CC)S(=O)(=O)c1ccc(NC(=O)COc2nc3ccccc3nc2N2CCOCC2)cc1 | -13.8% |
| N#C/C(=C/c1ccc(Cl)cc1)NC(=O)c1ccccc1 | -20.3% |
| COc1ccc(-c2cc(-c3ccc(C)cc3)nc(SCc3nnc(-c4ccccc4)o3)c2C#N)cc1OC | ? |
| O=C(NN1C(=O)C2C3C=CC(C3)C2C1=O)c1ccncc1 (configuration not stated) | -7.9% |
| CC(C)Cn1cnc2c(SCc3ccc(Cl)cc3Cl)nc(N)nc21 | -8.2% |
| CCNC(=O)CSc1nc2cc(OC)c(OC)cc2c(=O)n1CCC1=CCCCC1 | -9.2% |
| COC(=O)c1ccccc1NC(=O)CSc1nnc(C(C)NC(=O)c2ccc(Cl)cc2Cl)n1C (configuration not stated) | 4.0% |

Reformatted with each value named: four of the compounds above.
Cc1nnc(NC(=O)c2ccccc2F)s1
  HPGD block: -4.4%
CC(C)CNC(=S)NNC(=O)c1csc2c1CCC(C)C2 (configuration not stated)
  HPGD block: -0.7%
Cc1nc(SCC(=O)c2cccc([N+](=O)[O-])c2)n[nH]1
  HPGD block: -28.3%
Cc1cc(C)cc(SCc2noc(C(=O)NC(C)C)c2C(=O)O)c1
  HPGD block: -5.2%

Other results:
| Structure | HPGD block |
| --- | --- |
| O=C(Nc1ccc(Br)cc1)C1CCCN1S(=O)(=O)c1cccs1 (configuration not stated) | 4.4% |
| O=C1NN(c2ccccc2)C(=O)C2C3C=CC(C4CC34)C12 (configuration not stated) | -3.6% |
| C/C=C/c1ccc(O)c(OC)c1 | -2.1% |
| N#Cc1cccc(NC(=O)N2CCCC3(CCN(S(=O)(=O)c4ccccc4)CC3)C2)c1 | 2.5% |
| CCN(CC)c1ccc(C2N(C(=O)N3CCOCC3)CCN2S(=O)(=O)c2ccc(C)cc2)cc1 (configuration not stated) | -2.6% |
| CC(C)Oc1ccc(C2c3c(oc4ccccc4c3=O)C(=O)N2CCCN2CCOCC2)cc1 (configuration not stated) | -14.1% |
| CCOc1ccc(C2CC(c3cccc(Cl)c3)n3nc(N)nc3N2)cc1 (configuration not stated) | 0.1% |
| COc1ccccc1C(=O)CSc1n[nH]c(N)n1 | -22.6% |
| CCOC(=O)Cn1c(=O)oc2cc(S(=O)(=O)Nc3ccc(N(CC)CC)cc3C)ccc21 | 28.2µM* |
| C=CCN1C(=O)/C(=C/c2ccc(O)cc2)S/C1=N/c1nccs1 | -7.6% |
| CCOC(=O)C(=O)/C(C#N)=C/Nc1ccccc1 | -9.6% |
| Cc1cc(Cl)c(S(=O)(=O)N/N=C/c2ccc3c(c2)OCO3)c(Cl)c1 | -20.0% |
| O=C(NCc1cccnc1)c1ccc(Cl)c(Cl)c1 | -3.1% |
| CSc1ccc(Cl)c(C(=O)OCC(=O)Nc2ccccc2OC(F)F)c1 | -17.5% |
| CCSc1nnc([C@@H]2CCCN2C(=O)OC(C)(C)C)o1 | -7.8% |
| CC(=O)N1CCC2(CCCN(Cc3ccc(C#N)cc3)C2)CC1 | -16.2% |
| CCCCCCN(C(=O)CCCCCN1C(=O)NC(c2ccccc2-c2ccccc2)C(C(=O)OCc2ccccc2)=C1C)C(C(=O)NCCCC)c1ccc(OCC(=O)OC)c(C(=O)OC)c1 (configuration not stated) | -12.0% |
| Cc1cccc(N(CC(=O)N2CCOCC2)S(C)(=O)=O)c1 | -5.0% |
| CCOC(=O)C1=C(CSc2nnnn2C)N(C)C(=O)NC1c1ccccc1 (configuration not stated) | -8.8% |
| C=CCSc1nnc(NC(=O)CSc2nnc(C)s2)s1 | -6.7% |
| COc1ccc(CN(C(=O)CO/N=C/c2ccccc2)c2ccccc2C(=O)O)cc1 | -7.0% |
| Fc1cccc(Cl)c1-c1nnc2ccc(N3CCOCC3)nn12 | -8.2% |
| O=C(NCC1CC1)C1CCCN(S(=O)(=O)c2ccc(-n3cnnn3)cc2)C1 (configuration not stated) | -14.1% |
| COc1cc2c(cc1OC)C1=C(C#N)CN(CC(=O)O)CN1CC2 | ? |
| CCN=C(NCC)SC1CC(=O)N(c2cccc(OC)c2)C1=O (configuration not stated) | -8.3% |
| Clc1cc(NCc2cccs2)ccc1N1CCOCC1 | -28.3% |
| CC#CCNCc1ccccc1 | -5.3% |
| CCOC(=O)N1CCN(c2ccc([N+](=O)[O-])cc2F)CC1C (configuration not stated) | -3.2% |
| CCCS/C(N)=N/N=C/c1ccccc1O | -17.8% |
| O=C(Cc1noc2ccccc12)Nc1ccc(Cl)cc1 | -1.2% |
| O=C(CC1NC(=O)NC1=O)Nc1ccccc1 (configuration not stated) | 3.1% |
| O=C1CN(C(=O)CCN2CCOCC2)C(c2ccccc2)c2cc(Br)ccc2N1 (configuration not stated) | -10.3% |
| CSc1nc2ccc(S(=O)(=O)N3CCOCC3)cc2s1 | -14.4% |
| COc1ccc(-n2c(C)nc(=O)c(-c3ccccc3)c2C)cc1 | -7.3% |
| Cc1ccc(-c2noc(-c3ccccc3C(=O)N3CCCC3)n2)cc1 | -1.0% |
| O=C(COc1ccc(Br)cc1CO)Nc1ccc(F)cc1 | -2.4% |
| Cn1c(-c2nc(-c3ccccc3)cs2)nc2ccccc21 | ? |
| COc1ccc(CCNC(=O)C2CCN(c3nn4c(=O)cc(C)nc4s3)CC2)cc1OC | -20.2% |
| CC(=O)N1CCc2cc(S(=O)(=O)N3c4ccccc4CC3C)ccc21 (configuration not stated) | -9.2% |
| Cc1cccc(Oc2ccc(C(=O)NC3CCSC3=O)cn2)c1C (configuration not stated) | -2.3% |
| COc1cc2c(cc1NC(=O)CSc1nc3cc(Cl)ccc3s1)oc1ccccc12 | -9.5% |
| COC(=O)c1cc(Br)c(=O)n(Cc2cccnc2)c1 | -6.2% |
| Cc1ccc(N(CC(=O)Nc2ccccc2C(=O)NCc2ccco2)S(=O)(=O)c2ccccc2)cc1C | ? |
| CC(=O)OCC1OC(Oc2cc(OC(C)=O)c3c(=O)cc(-c4ccc(OC(C)=O)c(OC(C)=O)c4)oc3c2)C(OC(C)=O)C(OC(C)=O)C1OC(C)=O (configuration not stated) | -19.4% |
| CCOc1ccccc1N1CCN(C(=O)C(Sc2ccccc2)c2ccccc2)CC1 (configuration not stated) | -11.6% |
| Cc1cccc(CSCCNC(=S)Nc2ccccc2)c1 | ? |
| CCOC(=O)C1CSc2[nH]c(=O)sc2C1c1ccccc1 (configuration not stated) | -6.8% |
| COc1ccc(C2CC(=O)Nc3cc(C)c(C)cc32)c(OC)c1OC (configuration not stated) | -10.2% |
| CC(C)NC(=O)COC(=O)c1ccc(NS(=O)(=O)c2ccc3c(c2)OCCO3)cc1 | -5.3% |
| Nc1sccc1C(=O)c1ccc(Cl)cc1 | -15.3% |
| Cc1ccc(NC(=O)c2ccc(CSc3nnnn3C)cc2)cc1 | -17.2% |
| O=C(N/N=C/c1cn(-c2ccccc2)nc1-c1cccs1)c1ccncc1 | ? |
| CS(=O)(=O)NN1C(=O)c2ccccc2NC1c1c[nH]c2ccccc12 (configuration not stated) | -21.2% |
| O=C(Oc1ccc(OC(=O)c2ccco2)c(S(=O)(=O)c2ccc(Br)cc2)c1)c1ccco1 | 28.2µM* |
| CCn1c(CC(=O)Nc2ccccc2F)nnc1SCC(=O)N1CCN(c2ccccc2)CC1 | -7.5% |
| O=C(c1cccc(N2C(=O)C3CC=CCC3C2=O)c1)N1CCN(c2ccccc2)CC1 (configuration not stated) | ? |
| Cc1nc(C)c(C(=O)NCc2ccccc2Cl)o1 | 25.1µM* |
| CN(C)C(=O)c1c([N+](=O)[O-])c(C(C)(C)C)nn1C | -2.0% |
| Brc1ccc(NC2=Nc3ccccc3CC2)cc1 | ? |
| COc1ccc(C(C)=O)c(OC(=O)c2ccc(OC)c(OC)c2)c1 | -17.7% |

The list continues.
| Structure | HPGD block |
| --- | --- |
| Cn1c(=O)c2cn(-c3ccc4c(c3)OCCO4)cc2n(C)c1=O | -18.9% |
| COc1cc(/C=C2\C(=O)N(CCC#N)N=C2C)ccc1OCC(=O)Nc1ccccc1 | 10µM* |
| CC(NCc1ccccc1)C1COc2ccccc2O1 (configuration not stated) | 6.4% |
| O=S(=O)(c1ccc(F)cc1)N1CCN(Cc2ccccc2C(F)(F)F)CC1 | ? |
| CN(C)C(CNS(=O)(=O)c1ccc(F)cc1)c1cccnc1 (configuration not stated) | -5.1% |
| CCn1cc(C(=O)N2CC(C)CC(C)C2)c(=O)c2cc(S(=O)(=O)N3CCOCC3)ccc21 (configuration not stated) | 3.0% |
| Cn1c(=O)oc2cc(S(=O)(=O)N3CCCC(C(=O)NC4CCCc5ccccc54)C3)ccc21 (configuration not stated) | ? |
| CC(C)CC(C(=O)Nc1oc(-c2ccccc2)c(-c2ccccc2)c1C#N)N1C(=O)c2ccccc2C1=O (configuration not stated) | -16.8% |
| Cn1nnc2c(NCc3ccco3)nccc21 | ? |
| O=C1CN(C(=O)COC(=O)CNC(=O)c2ccccc2)c2ccccc2N1 | ? |
| CCOC(=O)c1ccc(NC(=O)Nc2ccc3c(c2)OCCO3)cc1 | -9.4% |
| O=C1NC(=S)N/C1=C/c1ccc(Oc2ccc(C(F)(F)F)cc2[N+](=O)[O-])c(Cl)c1 | -6.5% |
| COc1ccccc1NC(=O)c1ccc(CN2CCOCC2)cc1 | -11.0% |
| O=C(c1ccsc1)N1CCN(C(=O)c2cccs2)CC1 | -1.5% |
| C(CCc1nnc2c(n1)CCCC2)Cc1nnc2c(n1)CCCC2 | -2.1% |
| Cn1c(NC(=O)c2ccco2)c(-c2ccc(Cl)cc2)c(=O)c2ccccc21 | -15.7% |
| O=C(CNC(=O)/C(=C\c1ccc(Br)cc1)NC(=O)c1ccccc1)OCc1ccccc1 | -9.7% |
| O=C(C1CCCN(S(=O)(=O)c2ccccc2)C1)N1CCN(c2ncccn2)CC1 (configuration not stated) | ? |
| N#C/C(=C\c1ccco1)Sc1nc2ccccc2s1 | 10µM* |
| c1ccc(C2Oc3ccccc3C3CC(c4cccs4)=NN32)cc1 (configuration not stated) | ? |
| COC(=O)c1ccccc1NC(=O)N1CCN(C(=O)c2ccco2)CC1 | -21.4% |
| CCOC(=O)c1c(NC(=O)COc2ncnc3ccccc23)sc(C)c1C | -11.6% |
| O=C(/C=C/c1ccco1)NC(=S)NNC(=O)c1ccco1 | ? |
| O=C1CSC(c2ccccn2)N1c1cccc(Cl)c1 (configuration not stated) | -2.4% |
| O=C(c1ccccn1)N1CCN(c2ccc(C(F)(F)F)cn2)CC1 | -11.8% |
| Cc1ccccc1NC(=O)CCN1CCN(C/C=C/c2ccccc2)CC1 | -9.3% |
| CSc1nc2ccccc2n1C(=O)NC1CCCCC1 | -13.8% |
| COc1cccc(-n2nnc3c(=O)n(CC(=O)NC4CCCC4)cnc32)c1 | ? |
| COc1cc(/C=C(/NC(=O)c2ccccc2)C(=O)Nc2ccccc2)c([N+](=O)[O-])cc1OC | -3.2% |
| CC(=O)N=c1cccc(NC(C)=O)n1O | -4.7% |
| CCOc1ccc(N(CC(=O)NCC2CCCO2)S(=O)(=O)c2ccc(SC)cc2)cc1 (configuration not stated) | -6.4% |

For convenience, three of the compounds above:
| Structure | HPGD block |
| --- | --- |
| N#C/C(=C\c1ccco1)Sc1nc2ccccc2s1 | 10µM* |
| c1ccc(C2Oc3ccccc3C3CC(c4cccs4)=NN32)cc1 (configuration not stated) | ? |
| COC(=O)c1ccccc1NC(=O)N1CCN(C(=O)c2ccco2)CC1 | -21.4% |

Screening results from PubChem BioAssay.

An excerpt. The share of hits here may be higher or lower than overall.
